Source: PubChem BioAssay (Fisher Drug Discovery Resource Center)
NPYLR7 ag – activates Aedes aegypti NPYLR7 receptor; actives 0.15% (n = 270,000); AID 1259423; activation, % at 10 µM; HEK293T NPYLR7/Galpha15, GCaMP6s calcium fluorescence; in the data active = activation above about 40%;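 also: 0% = vehicle and 100% = reference agonist at the receptor; some compounds past the cut are filed as inactive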
NPYLR7 ag max-min – second read-out of NPYLR7 ag, no call of its own (marks repeat the call); activation, %; measured here: Max-Min RFU normalised activation; some inactives read as strong as hits;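 span of the calcium signal over five minutes; 0% = vehicle and 100% = native peptide agonist; compound fluorescence can raise it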
* marks the source's active call; other numbers are inactive results; & = joins results of further samples. These rows are one share of the data; count on the stated rates, not on these rows.

SMILES	NPYLR7 ag	NPYLR7 ag max-min
CN(Cc1ccccc1-n1cccn1)C(=O)CC1COCCN1 (centres undefined)	3	1
CCOc1nn(CC)cc1C(=O)N1CC(C)OC(C)C1 (centres undefined)	0	5
CC1CC(C)CN(S(=O)(=O)c2cccc(C(=O)Nc3nc4c(s3)CCC4)c2)C1 (centres undefined)	0	-2
CN1CC2(CCCN(Cc3nnc(-c4ccccc4)o3)CC2)OC1=O (centres undefined)	3	2
CC(NC(=O)CCS(=O)(=O)c1ccc(C(F)(F)F)cn1)c1ccccc1 (centres undefined)	-2	-4
O=C(CCl)Nc1nc(-c2ccccc2Cl)cs1	3	-3
COc1cc2c(cc1-c1c(-c3ccccc3)ncn1[C@H](C)C(N)=O)OCO2	5	1
CCOC(=O)c1cn[nH]c1S(=O)(=O)NCCCc1ccccc1	-2	-5
COCCN(Cc1sccc1C)C(=O)c1scc2c1OCCO2	-6	-7
CC(OC(=O)c1ccc(O)cc1)C(=O)OCCc1ccccc1 (centres undefined)	5	1
C=C(C)Cn1c(N2CCCC(C)C2)nc2c1c(=O)[nH]c(=O)n2C (centres undefined)	-7	1
Cc1ccc(C)c(S(=O)(=O)c2nnn3c2nc(N2CCc4ccccc42)c2ccccc23)c1	-5	-11
Cc1ccc(S(=O)(=O)Nc2cccc(-c3ccc(=O)n(C)n3)c2)s1	0	1
COCCc1noc(C(C)(C)c2ccc3c(c2)OCCO3)n1	-1	0
COC(=O)c1ccc(C(=O)N2CC(C)Cc3ccccc32)nc1 (centres undefined)	-1	-3
CCOC(C)c1ccc(-c2ccc(NC(C)=O)nc2)cc1 (centres undefined)	-5	-9
O=S(=O)(c1ccc2c(c1)OCCO2)N1CCNCC1	6&6	3&7
O=C(c1ccco1)N1CCCN(Cc2ccc(-n3cncn3)cc2)CC1	3	3
COc1ccc(CCN(Cc2ccc(C)o2)C(=O)CNCCN2CCCCC2)cc1OC	22	14
Cc1cccc(C(C2Sc3nc(C)nn3C2=O)N2CCC(C)CC2)c1 (centres undefined)	1	-1
CC(=O)Nc1cccc(-c2nccc3ccccc23)c1	3	1
Cc1occc1-c1nnc(SCC(=O)c2cc(C)n(C3CC3)c2C)n1C	0	2
Cn1nnc2c(Nc3ccccc3)ncnc21	14	9
Cn1c(=O)c2c(SCc3cccc(F)c3)nc(C3CC3)nc2n(C)c1=O	10	12
c1ccc(SCc2nc(Sc3nnc4ccccn34)c3c4c(sc3n2)CCC4)cc1	7	-1
COC(=O)[C@@H]1C[C@@H](N(C)C)CN1C1CCN(c2cc(C)cc(C)c2)CC1	7	-7
NC(=O)C1CCN(C(=O)CC(c2ccccc2)c2cccc(Cl)c2)CC1 (centres undefined)	25	13
CC(C)CNC(=O)c1cn(C2CCCC2)cc(C(=O)N2CC3(C)CC2CC(C)(C)C3)c1=O (centres undefined)	5	4
CC(=O)OCC(=O)N1CCC(Cc2ccc(-n3cccc3)cc2)CC1	0	11
CC(C)NCC(O)COc1ccc(COCCOC(C)C)cc1 (centres undefined)	8&-11&3	2&-15&-5
O=C(NC1CC2CCC(C1)N2Cc1ccc2c(c1)OCO2)c1ccc(C(F)(F)F)c(F)c1 (centres undefined)	6	3
Cc1cc2c(=O)n(C)c(SCC(=O)c3cccs3)nc2s1	-8	-9
O=C(O)c1cn(CC2COc3ccccc3O2)nn1 (centres undefined)	7	5
CC(C)c1nccn1Cc1cc(C(=O)N2CCc3sccc3C2)n[nH]1	3	-1
C=CCNc1ccccc1C(=O)N1CC[C@@H](c2ccc3c(c2)OCO3)[C@H](O)C1	10	2
Cc1cc(NC(=O)CNC2CCN(Cc3ccccn3)CC2)ccc1Cl	14	2
CCc1[nH]c(C(=O)Nc2nc3c(s2)CN(C)CC3)c(C)c1C(=O)OC	11	5
Cn1nnc2c(=O)n(Cc3cccc4ccccc34)cnc21	-1	6
CCCCCc1ccc(C(=O)Nc2nnc(SC(CC)C(=O)OCC)s2)cc1 (centres undefined)	24	33
CC(C)(C)c1ncc2c(n1)CN(C(=O)CCc1cc(Cl)no1)C2	33	15
Cc1sc(NS(=O)(=O)c2ccccc2)nc1C(=O)NCC(O)c1ccccc1 (centres undefined)	2	33
Cc1ccc2c(c1)c(C(=O)NC1CC(=O)N(Cc3ccc(F)cc3)C1)nn2C (centres undefined)	6	4
O=C(NCc1ccc(Br)s1)c1cccc(Nc2ncccn2)c1	10	7
CCOc1ccc(CN(Cc2ccc(F)cc2)Cc2nc(C(=O)NCC3CCCO3)co2)cc1 (centres undefined)	18	11
COc1cccc(-c2nnc3ccc(OCCNC(=O)Nc4ccc(F)c(F)c4)nn23)c1	-1	-1
Cc1cc(N=c2c([N+](=O)[O-])nn(-c3ccc4c(c3)OCCO4)n2O)ccc1Br	-8	-13
CC(NC(=O)c1ccsc1)c1ccc(S(C)(=O)=O)c(F)c1 (centres undefined)	5&-1	0&0
CCN(CC1CCN(C(=O)Cc2ccc(F)cc2)CC1)C(=O)OC(C)(C)C	0	0
CCOc1ncc(C(=O)N2CC(C)C(N(C)C)C2)cc1Cl (centres undefined)	1	-1
O=C(COc1ccccc1Br)N1CCCCC1	-7	-9

More records.
SMILES	NPYLR7 ag	NPYLR7 ag max-min
CCOc1ccc(-c2c(=O)n(OCC)c3ccccc3[n+]2[O-])cc1	11	4
CC(C)c1nc(CN(C)C(=O)c2cnn3ccn(C)c23)cs1	-2	-5
O=c1oc2ccccc2n1CN1CCCC(c2nc3ccccc3s2)C1 (centres undefined)	2	10
COc1ccc(-c2cc3c(n(C)c2=O)CCN(C(=O)C2CCCO2)C3)c2ccc(C)nc12 (centres undefined)	17	1
COC(=O)Cn1c(Br)nc2c1c(=O)[nH]c(=O)n2C	2	2
CCOC(=O)C(NC(=O)Nc1ccccc1F)(OC)C(F)(F)F (centres undefined)	10	11
N#CC1C(=N)Oc2n[nH]c(-c3ccccc3)c2C1c1ccc2c(c1)OCO2 (centres undefined)	16	8
COCCN(CC(=O)N(CCc1ccccc1)Cc1ccc(C)o1)C(=O)NC(C)(C)C	0	13
CCN(CC)S(=O)(=O)c1ccc2c(c1)nc(SCc1cc(F)c(F)c(F)c1)n2Cc1ccco1	24	14
CC(=O)c1ccc(NS(=O)(=O)c2ccc3c(c2)C(C)C(=O)N3)cc1 (centres undefined)	3	2

Next section; it opens with the 4 that closed the last part.
SMILES	NPYLR7 ag	NPYLR7 ag max-min
N#CC1C(=N)Oc2n[nH]c(-c3ccccc3)c2C1c1ccc2c(c1)OCO2 (centres undefined)	16	8
COCCN(CC(=O)N(CCc1ccccc1)Cc1ccc(C)o1)C(=O)NC(C)(C)C	0	13
CCN(CC)S(=O)(=O)c1ccc2c(c1)nc(SCc1cc(F)c(F)c(F)c1)n2Cc1ccco1	24	14
CC(=O)c1ccc(NS(=O)(=O)c2ccc3c(c2)C(C)C(=O)N3)cc1 (centres undefined)	3	2
Cc1cccc(NC(=O)C2CCN(CCn3nc(C)cc3C)CC2)n1	-5	-5
C=CCn1c(SCc2cc([N+](=O)[O-])cc3c2OCOC3)nnc1C1CCCCC1	-2	-6
COc1ccccc1NC(=O)Cn1c(-c2nnc(C(C)C)o2)cc2ccccc21	-5	-6
CC(N)=C(C#N)C(=O)COC(=O)Cn1cc(C(F)(F)F)ccc1=O	-8	-14
COc1ccc(Br)cc1CN(C)C(C)C(=O)N(C)c1ccccc1 (centres undefined)	9	2
CC1(C)C2([N+](=O)[O-])CN3CC1([N+](=O)[O-])CN(C2)C3c1ccc(F)cc1 (centres undefined)	23	20
O=C(NCCOc1ccccc1)C1CCC(=O)N(Cc2ccccn2)C1 (centres undefined)	2	1
COc1cc(C(=O)Nc2c3c(nn2-c2cccc(C)c2C)CS(=O)C3)cc(OC)c1OC (centres undefined)	-4	-6
O=C(NC(Cc1ccccc1)c1ccccc1)C1CCN(c2nc(Cc3ccc(Cl)cc3)ns2)CC1 (centres undefined)	0	17
CN1CCN(NC(=S)Nc2ccc(Cl)c(F)c2)CC1	0	-1
Cc1nc2cc(OCc3cc(C(=O)NC(C)c4cn(C)nc4C)no3)ccc2s1 (centres undefined)	8	3
COc1ccccc1CN(CCC(C)C)CC(O)COc1ccc(Cl)cc1 (centres undefined)	18	30
Cc1ccc(C)c2sc(N3CCN(C(=O)C4CC4)CC3)nc12	0	-2
CCN1CC(c2nc3ccccc3n2Cc2cc(C)ccc2C)CC1=O (centres undefined)	0	1
Cc1c(Cl)c(C(F)(F)F)nn1CC(=O)N1CCCCC1	13	12
NCc1ccccc1-c1ccc(CN2CCCC2=O)cc1	2	-1
COc1ccc(N2CCN(c3cc(C(=O)NCCC4=CCCCC4)c4ccccc4n3)CC2)cc1	22	16
CC(C)OCc1ccc(C(=O)N2CCC(C(=O)O)CC2)cc1	-1	-1
CCOC(=O)Nc1ccc2c(c1)NC(=O)CC2c1cc(C(C)C)no1 (centres undefined)	13	9
Cc1ccccc1CNC(=O)CN(C)Cc1ccco1	9	9
CC(NC(=O)CN1CCN(C2CCCC2)CC1)c1ccco1 (centres undefined)	11	12
C[C@@H]1CCC2[C@]3(C)COC(C)(C)O[C@H]3CC[C@]2(C)[C@@]12CCC1(COC(=O)C1)O2 (some centres undefined)	4	4
Cc1ccc(C(C(=O)O)N2CCN(S(=O)(=O)c3ccc(F)cc3)CC2)cc1 (centres undefined)	9	5
Cc1ccc(Nc2nc(N3CC(C)OC(C)C3)nc3nccnc23)c(C)c1 (centres undefined)	5	12
O=C(Nc1ccc(Oc2cccnc2)cc1)C1CCCCN1CCc1ccccc1 (centres undefined)	15	4
O=C(C(NS(=O)(=O)c1ccccc1)C1CCN(S(=O)(=O)c2ccc(Cl)cc2)CC1)N1CCOCC1 (centres undefined)	-1	1
O=C1c2ccccc2C(=O)N1CNc1ccc(Cl)c(Cl)c1	-1	-1
COc1cccc(C(=O)Nc2ccc(-n3nc(OC)nc3-c3cccc(C(F)(F)F)c3)cc2)c1	19	30
CC(C)CCN(CC(=O)Nc1cc(C(C)(C)C)nn1-c1ccc(Cl)cc1)C(=O)Nc1cccc(Cl)c1	18	16
CC1CC(=NNC(=O)c2cccs2)CC(C)(C)C1 (centres undefined)	-6	-8

Whole records, looked up by structure. Order of values: NPYLR7 ag | NPYLR7 ag max-min
C[C@@H]1CCC2[C@]3(C)COC(C)(C)O[C@H]3CC[C@]2(C)[C@@]12CCC1(COC(=O)C1)O2 (some centres undefined) in the list: 4 | 4
O=C(Nc1ccc(Oc2cccnc2)cc1)C1CCCCN1CCc1ccccc1 (centres undefined) in the list: 15 | 4
COc1cccc(C(=O)Nc2ccc(-n3nc(OC)nc3-c3cccc(C(F)(F)F)c3)cc2)c1 in the list: 19 | 30
Cc1ccc(C(C(=O)O)N2CCN(S(=O)(=O)c3ccc(F)cc3)CC2)cc1 (centres undefined) in the list: 9 | 5
CC1CC(=NNC(=O)c2cccs2)CC(C)(C)C1 (centres undefined) in the list: -6 | -8

Remaining list, next part.
SMILES	NPYLR7 ag	NPYLR7 ag max-min
CC(C)(C)n1cc(CNCCNC(=O)Cc2ccccc2)cn1	0	-2
Cc1cc(C)n(CCCNC(=O)c2nc3ccccc3[nH]c2=O)n1	19	8
CC1CN(CC(=O)Nc2ccccc2Sc2ccccc2)CCO1 (centres undefined)	-3	-3
COC(=O)CC1(NC(=O)C2CC(=O)N(c3ccc(F)cc3F)C2)CCCCC1 (centres undefined)	6	4
O/N=C1/CCN(Cc2ccccc2)C1	-4	-7
C#CCN1C(=O)[C@]2(C)[C@H](c3ccccc31)[C@@H](C(=O)NC)CN2C(=O)OCC(C)C	2	7
CSc1ccccc1C(=O)N(C)CC1CCN(CCc2ccc(F)cc2)CC1	3	-3
COc1cccc(-c2nnc(NC(=O)C(Cc3ccccc3)NC(=O)Nc3c(Cl)cccc3Cl)s2)c1 (centres undefined)	3	5
Fc1cccc(-c2nccn2Cc2noc(Cc3ccccc3)n2)c1	33	17
Cc1cc(C)c(C=C(C#N)S(=O)(=O)c2cc(Br)ccc2Br)c(C)c1	10	16
CCCc1nc2nc3c(cn2n1)C(=O)CC(C)C3 (centres undefined)	0	-5
O=C1CN(S(=O)(=O)c2ccccc2)CC(Cn2c3ccccc3c3ccccc32)O1 (centres undefined)	1	24
CCn1c2ccccc2c2nnc(SCCO)nc21	1	15
CC(C)CCNc1nc(Nc2ccccc2)c2cnn(-c3ccccc3)c2n1	1	-2
Cc1cc(=O)n2nc(CSc3nnc(C)n3C3CC3)sc2n1	3	3
Cc1ccc(NC(=O)Cn2nc(C)c3cnn(-c4ccc(F)cc4)c3c2=O)c(C)c1	8	3

In the list so far, 3 have a nitro group on carbon:
SMILES	NPYLR7 ag	NPYLR7 ag max-min
Cc1cc(N=c2c([N+](=O)[O-])nn(-c3ccc4c(c3)OCCO4)n2O)ccc1Br	-8	-13
C=CCn1c(SCc2cc([N+](=O)[O-])cc3c2OCOC3)nnc1C1CCCCC1	-2	-6
CC1(C)C2([N+](=O)[O-])CN3CC1([N+](=O)[O-])CN(C2)C3c1ccc(F)cc1 (centres undefined)	23	20
